Six1-Eya2 blk = qHTS Assay for Inhibitors of the Six1/Eya2 Interaction. activity change, % (concentration not given with the values). Homeobox protein SIX1 (Homo sapiens) + Protein phosphatase EYA2 (Homo sapiens), …. actives 0.56% (n = 360,000). AlphaScreen GST-Six1/His-Eya2 binding, biochemical; hits give low values; control for the full effect not named in the record; in the data active = activity change below about -65%; inconclusive = about -30% to -65%; inactive = above about -30%; also: % is scaled to controls: 0 for no effect and ±100 for the full control effect
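GST-Six1 + His-Eya2 (5X stock: 250/500 nM); Tris pH 8.0, 300 mM NaCl, 0.05% BSA, 0.02% Tween 20; GSH donor/Ni acceptor beads; 1 h 37 °C dark; AlphaScreen readout.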
PINK1 expr mod = A Quantitative High throughput Screen to Identify Chemical Modulators of PINK1 Expression | Potency, µM (top dose mostly 76.6 µM), for the others: top-dose activation (PINK1 increase), most hits filed as activators | actives 0.2% (n = 410,000) | PINK1 immunofluorescence, high-content cytometry, 24 h; active = well fitted activation curve with a large enough effect; inconclusive = small, poorly fitted or top-dose-only effect; inactive = flat fitted curve, though single readings scatter; cell line not stated here;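 also: potency is read from the fitted curve at half-maximal effect; % of control where 0% means no effect; nearly all actives have a fitted effect of over 65% in size; a mitochondrial uncoupler was the plate control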
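Stable cell line, 250 cells/well, 12 h attachment; compounds pinned at 5 concentrations, 24 h; CCCP control. Fixed with nuclear dye, primary antibodies 12 h at 10 degrees C, secondary plus cell stain; laser-scanning cytometer read.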
D2 agonist = Beta-Arrestin HTS for Positive Allosteric Modulators of the Human D2 Dopamine Receptor: Agonists; actives 0.084% (n = 360,000); DiscoveRx PathHunter D2 beta-arrestin, luminescence, 90 min; 100% = 57 uM dopamine signal; D(2) dopamine receptor (Homo sapiens), P14416; AID 624465, 2012; activation, % (test concentration not listed); in the data active = activation above about 40%; inconclusive = about 15% to 40%; inactive = below about 15%; also: compound concentration not given in the record; the text of the record calls up to 30% inactive
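Agonist mode: compounds alone added to overnight-plated D2 PathHunter cells for 90 min at 37 C, with 57 uM final dopamine (EC100) defining full response. Beta-arrestin recruitment detected by chemiluminescent reagent, read after 1 h at ambient temperature.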
Sfp PPTase inh = qHTS Assay for Inhibitors of Bacillus subtilis Sfp phosphopantetheinyl transferase (PPTase). actives 3.5% (n = 310,000). Biochemical Sfp PPTase activity, qHTS. Potency, µM, inactives show max response, negative = inhibition, most hits filed as inhibitors. AID 1490, 2009; active = well fitted inhibition curve with a large enough effect; inconclusive = small, poorly fitted or top-dose-only effect, or another doubt; inactive = no such curve, though single readings can be large or run the other way;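 also: the enzyme is Sfp with the accession as filed and its product quenches rhodamine fluorescence; potency is read from the fitted curve at half-maximal effect; 0% = enzyme reaction without inhibitor and -100% = no enzyme wells; top concentration of the series not given in the record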
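Step 1, compound plus 15 nM Sfp-PPTase, 15 min, room temperature. Step 2, add rhodamine-CoA (5 uM) and BHQ-2-YbbR (12.5 uM). Step 3, read 525/598 nm fluorescence at 0 and 30 min.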
TRPV1 potentiator = HTS Assay for Compounds that Act as Potentiators of the Vanilloid Receptor 1. actives 0.02% (n = 320,000). TRPV1-expressing cells, Fluo-8 calcium influx, capsaicin EC20 potentiation; host cell line not named in the record; control for the full effect not named in the record. potentiation, % at 8.33 µM; active means potentiation above 80%; inconclusive means 30% to 80%; inactive means below 30%; also: 0% is about no effect
Target sequence (Q8NER1 whole entry, looked up): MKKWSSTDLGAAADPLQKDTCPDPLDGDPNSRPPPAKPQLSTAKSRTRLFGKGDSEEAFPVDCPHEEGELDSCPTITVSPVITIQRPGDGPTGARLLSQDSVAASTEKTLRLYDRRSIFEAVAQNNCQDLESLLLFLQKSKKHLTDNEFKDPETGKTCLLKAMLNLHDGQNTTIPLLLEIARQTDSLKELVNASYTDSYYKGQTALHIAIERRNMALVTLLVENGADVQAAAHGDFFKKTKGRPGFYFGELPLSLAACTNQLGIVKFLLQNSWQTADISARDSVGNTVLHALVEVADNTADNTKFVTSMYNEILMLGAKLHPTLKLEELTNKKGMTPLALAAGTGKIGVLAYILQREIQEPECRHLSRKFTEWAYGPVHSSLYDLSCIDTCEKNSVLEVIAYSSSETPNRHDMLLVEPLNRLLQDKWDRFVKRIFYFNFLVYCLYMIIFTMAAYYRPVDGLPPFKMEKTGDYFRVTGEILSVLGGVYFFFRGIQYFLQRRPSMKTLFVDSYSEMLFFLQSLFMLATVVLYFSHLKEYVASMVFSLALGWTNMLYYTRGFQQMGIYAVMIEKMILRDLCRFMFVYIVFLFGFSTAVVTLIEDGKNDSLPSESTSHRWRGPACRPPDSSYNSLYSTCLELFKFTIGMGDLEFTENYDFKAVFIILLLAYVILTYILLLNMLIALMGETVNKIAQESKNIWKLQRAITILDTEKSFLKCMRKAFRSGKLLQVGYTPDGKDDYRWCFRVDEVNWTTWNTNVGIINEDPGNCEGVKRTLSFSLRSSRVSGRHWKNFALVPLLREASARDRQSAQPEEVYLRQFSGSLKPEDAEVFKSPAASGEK
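Fluo-8 calcium influx in TRPV1-expressing cells, kinetic read (ex 480/em 520 nm). Compound added and read 3 min for agonist activity, followed by capsaicin at EC20 final and 2 min further read for enhancement.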
D2 PAM = Beta-Arrestin HTS for Positive Allosteric Modulators of the Human D2 Dopamine Receptor: Potentiators; D(2) dopamine receptor (Homo sapiens), P14416; DiscoveRx D2 beta-arrestin cells, luminescence, 90 min; 100% = 57 uM dopamine signal; potentiation, % (concentration not given with the values); actives 0.23% (n = 360,000); AID 624464, 2012; active = potentiation of 50% or more; inconclusive = 30% to 50%; inactive = 30% or less;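 also: compound concentration not given in the record; tested on top of an EC20 dose of dopamine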
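PathHunter beta-arrestin assay in DiscoveRx D2 cells. Compounds were added with an EC20 of dopamine (50 nM final) for 90 min at 37 deg C. Luminescence was read 1 h after detection reagent, with 57 uM dopamine as the EC100 control.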
CtBP-E1A inh = qHTS Assay for Inhibitors of the CtBP/E1A Interaction; CtBP / adenovirus E1A interaction (AlphaScreen); AlphaScreen GST-E1A/His-CtBP binding, 1536-well; hits give low values; control for the full effect not named in the record; activity change, % (no concentration beside the values); actives 0.49% (n = 340,000); AID 651724, 2012; in the data active means activity change below about -65%; inconclusive means about -30% to -65%; inactive means above about -30%; also: % is scaled to controls: 0 for no effect and ±100 for the full control effect; compound concentration not given in the record
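AlphaScreen with 125 nM GST-E1A and 125 nM His-CtBP (5X stocks) in Tris pH 8.0, 300 mM NaCl, BSA, Tween 20, TCEP. Compounds preincubated 2 h at 37 deg C, then glutathione donor/nickel acceptor beads added for 1 h at 37 deg C in dark.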
Starred values were filed as active, the others as inactive; u = inconclusive; x = not tested or not shown; [ ] = remark or other dose.

SMILES	Six1-Eya2 blk	PINK1 expr mod	D2 agonist	Sfp PPTase inh	TRPV1 potentiator	D2 PAM	CtBP-E1A inh
COc1ccc(CC(=O)Nc2ccc(-c3nc4cc(C)ccc4o3)c(O)c2)cc1OC	9	10%	-1.8	-18%	8	-4	2
O=S(=O)(N1CCCCC1)N1CCN(c2ccccc2F)CC1	3	x	-1.5	3%	-16	-17	5
OC1CCNC(=S)N1c1ccccc1 (stereo not given)	3	-1.1%	0.7	4%	2	0	3
O=C(NCc1cccnc1)C1CC(c2ccc(F)cc2)=NO1 (stereo not given)	0	u	-1.0	8%	4	-4	-7
COc1ccc(OC)c(C2=NOC(C(=O)N3CCCc4ccccc43)C2)c1 (stereo not given)	-1	-3.2%	-2.0	-12%	5	-8	-9
CCc1cccc(C)c1NC(=O)N(C)C1CCCCC1	1	0.2%	-3.5	-7%	-9	-11	1
COc1cccc(NC(=O)CCc2nc(-c3ccccc3F)no2)c1	-3	2.2%[38.3 µM]	0.5	10%	-7	-9	-9
Cc1cc2nn(-c3cccc4ccccc34)nc2cc1NC(=O)c1cccs1	9	-5.2%	1.3	19%	4	2	19
CC1(C)OC1COc1c2ccoc2cc2oc(=O)ccc12 (stereo not given)	4	2.2%	-7.7	10%	20	-4	-2
C=CCC[C@H](Cc1ccc(F)cc1)C(=O)OC[C@H](Cc1c[nH]c2ccccc12)NC(=O)[C@@H](CC=C)CC(=O)N(CCO)Cc1ccccc1	-15	0.0%	-11	x	x	-1	-10
O=C(CCN1C(=O)/C(=C/c2cccs2)SC1=S)Nc1ccccc1O	-12	5.3%	-0.8	13%	-2	5	0
Cc1cc(C)cc(NC(=S)N2CCC(NC(=O)C3CCCCC3)CC2)c1	4	7.0%	-3.2	12%	u	-7	0
COc1ccc(OC)c(C2C(C(=O)c3ccco3)=C(O)C(=O)N2CC2CCCO2)c1 (stereo not given)	13	0.4%	-2.5	-1%	16	-4	0
COc1ccc(OC)c(NC(=O)C2(C)CCN2Cc2ccsc2)c1 (stereo not given)	-22	1.0%	-1.2	x	x	-7	-11
CN(Cc1ccc(Br)cc1)CC(O)COc1cccc(Br)c1 (stereo not given)	-2	5.9%	2.4	-16%	12	-16	3
Cn1c(-c2cnn(-c3ccccc3)c2-n2cccc2)n[nH]c1=S	1	0.0%	-6.3	10%	-8	-4	x
O=C(NCCCN1CCOCC1)c1csc2c1CCCC2	4	-0.4%[38.3 µM]	-1.3	12%	3	-12	13
Cn1c(=O)c2[nH]c(N=NNc3ccccc3F)nc2n(C)c1=O	-3	1.9%	2.1	25µM*	-2	-4	-1
COc1ccc(NC(=S)NCCC2=CCCCC2)cc1OC	-13	-1.4%	-3.1	4%	-12	-8	1
Cc1ccccc1OCC(=O)Nc1ccc(N2CCN(S(C)(=O)=O)CC2)cc1	-1	-2.3%	-0.5	-1%	-18	6	-1
CCC(C)NCCOCCOc1ccc(C)cc1Br (stereo not given)	0	0.0%[38.3 µM]	-1.8	-19%	-7	-16	6
O=C(NC1CCCC1)C(c1ccc(F)cc1)N(C(=O)c1csnn1)c1ccccc1 (stereo not given)	7	3.1%	-6.4	9%	6	-13	-5
O=C(c1ccc2c(c1)OCCO2)C1CCN(C(=O)Nc2ccc(F)cc2)CC1	0	1.3%	2.2	6%	-23	0	-11
COCCn1c(=N)c(S(=O)(=O)c2ccc(F)cc2)cc2c(=O)n3ccccc3nc21	-3	0.7%	-8.9	12%	-12	-10	-5
Cn1c(=O)[nH]c(=O)c2c1nc(N1CCCCC1)n2CCCSc1nnnn1-c1ccccc1	-7	3.4%	-6.3	-3%	10	1	2
O=C(Nc1ccnn1C1CCN(C(=O)c2ccc(Cl)cc2)CC1)C1CC1	3	2.0%	-1.2	13%	-5	2	4
CCCc1nc(SCC(=O)Nc2nnc(CC)s2)c2c(=O)n(C)c(=O)n(C)c2n1	4	4.4%	-1.7	-8%	7	-9	-2
O=C(NCc1cccc(C(F)(F)F)c1)C1CCCN(c2cnccn2)C1 (stereo not given)	-8	0.2%	11	4%	-4	-11	0
O=C(CCN1C(=O)c2ccccc2S1(=O)=O)Nc1ccc(Cl)cc1	21	3.6%	-5.7	3%	15	-1	10
CCOC(=O)C1CCN(C(=S)Nc2ccc(CC)cc2)CC1	3	-0.7%	-1.9	20%	-31	-5	-13
O=C(CSc1ccc(-c2ccc(F)cc2)nn1)N1CCOCC1	1	0.9%	-1.8	15%	-11	-19	2
COc1ccc(OC)c(NC(=O)CN2C(=O)COc3ccc(C)cc32)c1	-4	3.2%	-2.0	14%	-7	-10	5
O=C(Nc1cccc(Cl)c1)c1ccc2sc([C@@H]3O[C@H](CO)[C@H](O)[C@H](O)[C@H]3O)nc2c1	-1	0.3%	-2.4	x	x	-9	-5
CN1CCN(c2ccncc2S(=O)(=O)N2CCCC2)CC1	-1	1.4%	-2.7	x	x	-8	1
Fc1ccc(CSc2nc3ncccc3[nH]2)cc1	5	-4.2%	2.3	-20%	-4	-2	1
O=C(c1ccc(Cl)cc1)N1CCCC(C(=O)N2CCCCC2)C1 (stereo not given)	-1	-0.2%	-0.4	11%	7	-2	3
COc1ccc(C)cc1NC(=O)C(OC(=O)c1cccc(S(=O)(=O)N(C)c2ccccc2)c1)c1ccccc1 (stereo not given)	3	-0.4%	-5.9	9%	18	-10	-2
Cn1c(C(=O)NCCCN2CCCCC2)cc2sccc21	-4	4.9%[38.3 µM]	-4.2	14%	-9	-15	-2
CC1(C)OC(=O)N(CC(=O)Nc2cccc(C(F)(F)F)c2)C1(C)O (stereo not given)	-4	0.8%	-0.4	u	0	2	6
CCOC(=O)C1(C)CCCN1C(=O)c1c(F)cccc1F (stereo not given)	0	0.4%	-2.9	x	x	-5	0
Cn1cc(/C=N\NC(=O)c2cccs2)c2ccccc21	13	6.3%	-4.0	10%	3	-13	-7
Cc1n[nH]c(=O)nc1NCCN(C)C	2	-0.3%	-3.5	12%	-11	-15	0
COc1ccc(C(=O)NNC(=O)CSc2nnc(COc3ccccc3OC)n2C)cc1	5	0.8%	1.1	13%	-19	6	21
Cc1ccc(C(CNC(=O)c2ccco2)N2CCN(C)CC2)cc1 (stereo not given)	-3	1.9%	-2.0	x	2	-24	7
CCSC1=NCCN1S(=O)(=O)c1ccc(Cl)cc1	0	-0.8%	-0.7	17%	2	-6	x
O=C(NC(c1cccnc1)C(F)(F)F)c1cc(COc2ccc3c(c2)CCCC3)on1 (stereo not given)	-2	15%	6.3	2%	6	8	-2
CCN1CCN(C(=O)c2ccc(CNS(=O)(=O)c3cccc(OC)c3)cc2)CC1	6	2.4%	-2.6	9%	3	-13	-6
COc1cc(OC)nc(Oc2ccc(NC(C)=O)cc2)n1	1	2.7%	-0.8	19%	-10	-7	9
Cc1cccc2cc(C#N)c(NCCNC(=S)NCCCN3CCOCC3)nc12	-2	-2.4%[38.3 µM]	3.5	2%	8	-16	4
CC(C)N1C(=O)NC2(c3ccccc3)N(C)C(=O)N(C)C12c1ccccc1 (stereo not given)	15	0.5%	1.9	8%	-17	6	-15
CN(C)c1ccc(C2CC(c3cccc(NS(C)(=O)=O)c3)=NN2C(=O)c2ccccc2)cc1 (stereo not given)	-27	0.0%	5.1	-3%	5	-7	x
CCCCC(=O)NNC(=S)NC(=O)c1cccc([N+](=O)[O-])c1	-2	-1.9%	-1.8	-81%	25	-7	2
CC(C)(C)c1cn(-c2ccc(Cl)cc2)c(=S)[nH]1	0	3.6%[38.3 µM]	0.5	6%	-8	-2	-4
CN(C)CCNC(=S)Nc1ccc(Cl)cc1	4	-1.4%	-2.7	23%	1	-21	-2
O/N=C(\c1ccccn1)C1CC1c1ccccc1 (stereo not given)	-10	-0.1%	-0.2	10%	15	1	-7
COCC(=O)N(Cc1cc2cc(C)ccc2[nH]c1=O)c1cccc(C)c1C	20	-0.7%	-2.5	8%	2	0	0
Cn1[nH]c(C(F)(F)F)c(C=Nc2ccc(Cl)cc2)c1=O	1	2.1%	-5.2	4%	0	-8	x
COc1cc(CNC(=O)C2CCC(=O)N(C3CCCCCC3)C2)cc(OC)c1 (stereo not given)	7	0.2%	-3.0	10%	-6	-10	12
CCn1c(=O)c(C(=O)CN(C)Cc2ccc(F)cc2)c(N)n(Cc2ccccc2)c1=O	14	0.8%	-3.4	15%	1	-5	0
COc1ccccc1N(C)S(=O)(=O)c1ccc(Cl)c(C(=O)Nc2ccncc2)c1	26	1.7%	0.4	x	-10	-32	0

Reformatted with two lines to a compound: five of the compounds above
Values run as follows: Six1-Eya2 blk | PINK1 expr mod | D2 agonist | Sfp PPTase inh | TRPV1 potentiator | D2 PAM | CtBP-E1A inh
- Cc1ccc(C(CNC(=O)c2ccco2)N2CCN(C)CC2)cc1 (stereo not given)
    -3 | 1.9% | -2.0 | x | 2 | -24 | 7
- CCSC1=NCCN1S(=O)(=O)c1ccc(Cl)cc1
    0 | -0.8% | -0.7 | 17% | 2 | -6 | x
- O=C(NC(c1cccnc1)C(F)(F)F)c1cc(COc2ccc3c(c2)CCCC3)on1 (stereo not given)
    -2 | 15% | 6.3 | 2% | 6 | 8 | -2
- CCN1CCN(C(=O)c2ccc(CNS(=O)(=O)c3cccc(OC)c3)cc2)CC1
    6 | 2.4% | -2.6 | 9% | 3 | -13 | -6
- COc1cc(OC)nc(Oc2ccc(NC(C)=O)cc2)n1
    1 | 2.7% | -0.8 | 19% | -10 | -7 | 9

Next structures
SMILES	Six1-Eya2 blk	PINK1 expr mod	D2 agonist	Sfp PPTase inh	TRPV1 potentiator	D2 PAM	CtBP-E1A inh
CCN(CC)CCn1c2ccccc2c2cnc(N=CN(C)C)c(C#N)c21	-18	-1.9%	-2.3	5%	-22	-49	-14
CC(C)(OC(=O)c1ccc(C#N)cc1)c1cc2ccccc2c(=O)o1	6	-0.1%	-0.1	x	-8	-3	11
O=C(c1ccco1)N1CCN(c2cc(=O)n(-c3ccc(Cl)cc3)c(=O)[nH]2)CC1	0	3.0%	-2.0	-4%	-8	1	-9
CC(NC(=O)CN(C)Cc1cccc(Cl)c1)c1ccccc1 (stereo not given)	-2	-0.2%	-3.8	-22%	-2	-10	-9

Bioassay records from PubChem BioAssay.
